Vaccinia mCherry: vaccinia inhibition (mCherry reporter); Potency, µM (highest dose often 36.5 µM), inactives show at the highest dose activity change, negative = inhibition, usual class: inhibitors; 0.63% of 310,000 active; Vaccinia virus mCherry reporter infection, fluorescence; about a quarter of the inactives have no number; active = well fitted inhibition curve with a large enough effect; inconclusive = small, poorly fitted or top-dose-only effect; inactive = no such curve, though single readings can be large or run the other way; tested in A549 cells; also: nearly all actives have a fitted effect of over 35% in size; inactives centre near -10
VACV Venus inh: inhibitors of vaccinia virus (Venus reporter); Vaccinia virus Venus reporter expression, fluorescence; Potency, µM (titrated, usually from 36.5 µM), for inactives: at the highest dose activity change, negative = inhibition, usual class: inhibitors; 0.46% of 330,000 active; AID 720580; active means well fitted inhibition curve with a large enough effect; inconclusive means small, poorly fitted or top-dose-only effect; inactive means no such curve, though single readings can be large or run the other way; tested in A549 cells; also: nearly all actives have a fitted effect of over 30% in size; inactives centre near -10
An asterisk follows results filed as active; i = inactive; ? = inconclusive; . = not tested or not shown; & = joins results of further samples; [ ] = another dose, or the depositor's remark. % is scaled to controls: 0 for no effect and ±100 for the full control effect; potency is read from the fitted curve at half-maximal effect. Outcome played no part in choosing rows (roughly 0.87% active in at least one column).

SMILES	Vaccinia mCherry	VACV Venus inh
CC1(C)CC(NS(=O)(=O)c2ccc(S(=O)(=O)N3CCOCC3)cc2)CCO1 (centres undefined)	-22.6%	-12.5%
CCOC(=O)C1=C(c2ccccc2)c2ccccc2N(S(=O)(=O)C(F)(F)F)C1C(=O)OCC (centres undefined)	-27.8%	0.0%
COCCN(CCOC)S(=O)(=O)c1ccc(C(=O)Nc2c(C)n(C)n(-c3ccccc3)c2=O)cc1	i	-4.9%
CCC(C)N(NC(C)=O)c1nc(Cl)nc(NC(C)(C)C)n1 (centres undefined)	-18.5%	-10.1%
CN(CC(=O)Nc1cccc(F)c1)C(=O)C1CSC2(C)CCC(=O)N12 (centres undefined)	i	-10.6%
COc1cc2c(cc1NC(=O)COC(=O)CNC(=O)c1ccccc1)oc1ccccc12	-9.6%	-12.3%
O=C(NNC(=O)C1[C@H]2CCCC[C@@H]12)Nc1cccc2ccccc12 (some centres undefined)	-22.0%	-11.4%
COc1cc2[nH]c(=O)n(CCCCCC(=O)N3CCN(c4cccc(C(F)(F)F)c4)CC3)c(=O)c2cc1OC	?	?
Clc1ccc(CNCc2cccs2)c(Cl)c1	-13.3%	-6.0%
COc1ccc(-c2cc(C(=O)N/N=C(\C)c3ccco3)c3ccccc3n2)c(OC)c1	?	-7.4%
Cc1c(C(=O)NCc2ccc3c(c2)OCO3)oc2ccc(S(=O)(=O)N3CCCCCC3)cc12	-28.7%	-23.1%
Cc1ccc(-n2c(SCC(=O)c3c(N)n(C4CC4)c(=O)[nH]c3=O)nnc2N2CCOCC2)cc1	i	5.6%
Cc1cc(=O)oc2cc(OCC(=O)Nc3ccc4[nH]c(=O)[nH]c4c3)ccc12	-10.7%	-11.0%
Cc1ccc(CSc2nnc(CCCCCNC(=O)OC(C)(C)C)o2)cc1	-2.5%[7.34 µM]	-1.0%[7.34 µM]
Cc1nn(C)cc1/C=C/C(=O)c1ccc(O)cc1	?	-23.5%
CCC1(COC(NC(=O)c2cccnc2)(C(F)(F)F)C(F)(F)F)COC1	-24.0%	-23.3%
Cc1ccc(/C=C/C(=O)OCC(=O)Nc2ccc3[nH]c(=O)[nH]c3c2)o1	-14.3%	-4.6%
O=C(CCCc1ccccn1)c1ccccc1	i	-9.2%
C[C@@H]1CN([C@H](C)CO)C(=O)CCCn2nncc2CO[C@H]1CN(C)S(=O)(=O)c1ccc(Oc2ccccc2)nc1	-10.4%	-7.7%
COc1ccc(-c2cc3ccc(F)cc3cn2)cc1	-16.8%	-6.0%
COc1cccc(N2CCN(C(=O)C3CCC(=O)N(C4CCCCCC4)C3)CC2)c1 (centres undefined)	-22.2%	-27.7%
CCc1ccccc1NC(=O)Cn1nnc(C(=O)NCc2ccco2)c1N	-17.2%	-14.7%
Cc1cccc(C)c1NC(=O)CSc1nnnn1-c1ccc(C(=O)O)cc1	-5.9%	-3.2%
O=Nc1c(-c2ccccc2)[nH]n(-c2ccccc2)c1=O	4.6%	-18.9%
O=C(Nc1ccccc1F)c1nc(SCc2ccc(F)cc2)ncc1Cl	-10.7%	-4.6%
COc1ccc([N+](=O)[O-])cc1NC(=O)CC(c1ccccc1)c1ccccc1	i	-4.5%
CCCNc1nc2c(c(=O)n(C)c(=O)n2C)n1CC(O)COc1ccccc1 (centres undefined)	-1.0%	0.7%
Cc1cc2c(NC(=O)Nc3ccccc3)cccc2nn1	-8.7%	-2.5%
CCOCCCNC(=O)Cc1c(C(=O)O)[nH]c2ccc(Cl)cc12	i	-4.7%
CCn1cc(/C=C/C(=O)Nc2c(C)nn(Cc3ccccc3)c2C)cn1	-22.5%	-22.2%
O=C(Cn1nc(-c2ccc(Cl)cc2)ccc1=O)N1CCC2(CC1)OCCO2	i	9.7%
CCN(CC)S(=O)(=O)c1ccc(N2CCN(S(=O)(=O)c3ccccc3)CC2)nc1	-4.8%	-27.6%
O=C(Cn1cc2c(n1)CCCC2)Nc1ccccc1Br	-5.0%	-4.7%
Cc1nonc1OC(C)CNCCNc1ccc([N+](=O)[O-])cc1 (centres undefined)	i	-5.4%
CCN(CC)S(=O)(=O)c1ccc(OC)c(NC(=O)C(C)Oc2ccc3c(C)cc(=O)oc3c2)c1 (centres undefined)	?	-22.3%
CCc1nc2ccc(C(=O)NCC3CCCCC3)cn2c1N(CCC(C)C)CCN(C)C	-4.7%	-13.2%
Cc1cc(C)nc(N2N=C(CSc3ccc(Cl)cc3)CC2=O)n1	-8.9%	-2.7%
CCn1c(=O)cc(OCC(=O)N2CCN(c3ccc(C)cc3)C(C)C2)c2ccccc21 (centres undefined)	-25.3%	-13.4%
CCOc1ccc(CNC(=O)c2cc3c(=O)oc4ccc(C)cc4c3s2)cc1	-3.4%	0.9%
CN1C(=O)C2(OCCCO2)c2cc(Cl)ccc21	i	-17.3%
Cc1ccc(NC(=O)COC(=O)Cn2nc(C)c([N+](=O)[O-])c2C)c([N+](=O)[O-])c1	-13.4%	-8.2%
Cc1ccc(-c2nn(-c3ccccc3)cc2/C=C/C(=O)Nc2nccs2)cc1	-10.3%	-26.6%
Cc1cccc(C)c1OCCSc1nc2ccccc2n1CC(=O)O	-5.8%	-5.6%&7.7%
CCC(C)c1ccc(Nc2ncccc2C#N)cc1 (centres undefined)	.	-17.3%
O=C(NCC(=O)N1CCCC1)c1ccccc1F	46.4%[activator]	7.7%
NC(=S)N/N=C1\CC(c2ccc3c(c2)OCCO3)Oc2ccc(F)cc21 (centres undefined)	11.2µM*	?
Cc1ccccc1NC(=O)COC(=O)CCC(=O)c1cccs1	-13.9%	2.5%
O=[N+]([O-])c1cc([N+](=O)[O-])c(Oc2ccc(Br)cc2Br)cc1NN1CCCCC1	?	-11.8%
Cc1ccc(C(=O)OCC(=O)N2CCNC2=O)c(C)c1	-16.4%	-8.4%
CCOC(=O)c1sc2cccc(F)c2c1S(=O)(=O)Nc1ccccc1F	-2.8%	-8.7%
COc1cc2ncc3c(-c4ccccc4)nn(-c4ccc(C)cc4)c3c2cc1OC	?	-11.3%
Cc1csc(NC(=O)CSc2sc3c(O)cc(=O)[nH]c3c2C#N)n1	-14.5%	1.4%
Cc1ccc(-n2c(C)cc(C(=O)CN3CCCCC3)c2C)cc1	-10.6%	-5.7%
Cc1cc(C)c2c(NC(=O)CCl)nn(C)c2n1	4.47µM*	?
CC1CCN(c2nc3c(S(=O)(=O)c4ccccc4)nnn3c3ccsc23)CC1	-11.0%	-4.1%
COc1ccc(/C=C/C(=O)NCC(=O)N/N=C(\C)Cc2ccccc2)cc1	-3.8%	-7.0%
CN(C)c1ccc(CCc2ccc(N)cc2)cc1	?	16.7%
C[C@H](c1ccccc1)N1C[C@H](COCc2ccccc2)Oc2cc(N3CC[C@H](O)C3)ccc2S1(=O)=O	1.5%	-12.5%
CC(C)=CCN1CCN(Cc2ccc(C)s2)CC1CCO (centres undefined)	-1.1%	-15.5%
CC(C)=CC(=O)OCC(=O)Nc1cc(C)cc(C)c1	i	-13.3%

Laid out differently: entries from further up.
mol | Vaccinia mCherry | VACV Venus inh
COc1cc2ncc3c(-c4ccccc4)nn(-c4ccc(C)cc4)c3c2cc1OC | ? | -11.3%
COc1ccc(/C=C/C(=O)NCC(=O)N/N=C(\C)Cc2ccccc2)cc1 | -3.8% | -7.0%
Cc1ccccc1NC(=O)COC(=O)CCC(=O)c1cccs1 | -13.9% | 2.5%
CC(C)=CCN1CCN(Cc2ccc(C)s2)CC1CCO (centres undefined) | -1.1% | -15.5%

Continuation:
SMILES	Vaccinia mCherry	VACV Venus inh
O=C(c1ccc(F)cc1)N(c1ccccn1)C1CCCCC1	i	-9.8%
Cc1ccc(C2N3CC4(C)CN2CC(c2ccccc2)(C3)C4=O)cc1 (centres undefined)	-7.6%	-15.8%
Cc1cccc(C)c1NC(=O)CSc1nnc(C)n1CC1CCCO1 (centres undefined)	-6.3%	3.1%
O=C(Cc1ccc(F)cc1)N[C@@H]1c2ccccc2CC[C@@H]1OCc1ccccc1	i	-14.6%
CC(C)C(NS(=O)(=O)c1ccccc1)C(=O)NC1CCCC1 (centres undefined)	-5.3%	?
Cc1ccccc1NC(=O)Cn1c(SCC(=O)Nc2ccc(F)cc2)nc2ccccc21	-10.4%	-22.0%
COc1cc(SC)ccc1C(=O)Nc1cccc(C2OCCCO2)c1	-3.7%	-6.1%
Cc1cc(=O)[nH]c(N2CCN(c3ccc(Cl)cc3)CC2)n1	i	-3.0%
COc1ccc(OC)c(C(=O)N2CCc3c(cnc(C)c3CNS(=O)(=O)N(C)C)C2)c1	-11.5%	-9.7%
CCSc1ccc([C@@H]2[C@H]3C(=O)N(C)C(=O)[C@H]3[C@]3(C(=O)OC)CCCCN23)cc1	-21.7%	?
COc1cc(OC)cc(-c2cc3nc4c(c(N5CCN(c6ncccn6)CC5)n3n2)CCCC4)c1	-1.0%	-16.7%
NNC(=O)CS(=O)(=O)CS(=O)(=O)CC(=O)NN	-10.9%	-4.6%
CCn1cc(C(=O)NC(=S)Nc2ccccc2[N+](=O)[O-])cn1	-9.4%	-16.4%
COc1cccc(/C=C(\CC(=O)O)c2nc3ccccc3s2)c1	-19.3%	-16.5%
CCOc1ccccc1-n1c(SCC(=O)Nc2ccccc2C(=O)O)nc2ccccc2c1=O	-13.0%	-7.9%
Cc1ccccc1CNC(=O)c1csc([C@@H]2C[C@H](O)[C@@H](CO)O2)n1	43.7%[activator]	-4.8%
CCOc1ccc(C(=O)Nc2cccc(OCc3cc(=O)n4ccccc4n3)c2)cc1	i	-9.3%
O=C(Cn1c(=O)oc2cc(S(=O)(=O)N3CCCCCC3)ccc21)Nc1ccc(F)cc1F	-13.3%	-11.6%
CCCCn1c(SCc2nc3ccccc3s2)nc2ccccc2c1=O	-21.1%	-6.5%
Cc1sc2ncnc(N3CCC(C(=O)Oc4cccc(Cl)c4Cl)CC3)c2c1C	-12.0%	-9.1%

Reprinted from above, 5 compounds:
SMILES	Vaccinia mCherry	VACV Venus inh
CC1(C)CC(NS(=O)(=O)c2ccc(S(=O)(=O)N3CCOCC3)cc2)CCO1 (centres undefined)	-22.6%	-12.5%
CCOC(=O)C1=C(c2ccccc2)c2ccccc2N(S(=O)(=O)C(F)(F)F)C1C(=O)OCC (centres undefined)	-27.8%	0.0%
COCCN(CCOC)S(=O)(=O)c1ccc(C(=O)Nc2c(C)n(C)n(-c3ccccc3)c2=O)cc1	i	-4.9%
CCC(C)N(NC(C)=O)c1nc(Cl)nc(NC(C)(C)C)n1 (centres undefined)	-18.5%	-10.1%
CN(CC(=O)Nc1cccc(F)c1)C(=O)C1CSC2(C)CCC(=O)N12 (centres undefined)	i	-10.6%

Continuation.
SMILES	Vaccinia mCherry	VACV Venus inh
Cc1sc2nc(N3CCOCC3)[nH]c(=O)c2c1-c1ccccc1	-10.6%	-5.0%
CCCNC(=O)NC1C(NC(=O)NCCC)N(C)C(=O)N1C (centres undefined)	.	-2.4%
Cc1ccc(S(=O)(=O)N2CCOCC2)cc1NC(=O)COc1ccccc1Cc1ccccc1	-19.3%	-22.4%
COc1ccccc1N1CCN(c2ncnc3onc(-c4ccc(F)cc4)c23)CC1	-2.6%	1.2%
Cn1c(=O)c2c(c3ccccc31)OC(C)(C)CC2	-27.0%	-15.2%
COc1ccc(/C=C/C(=O)OCC(=O)Nc2ccc(C)cc2)cc1S(=O)(=O)N1CCOCC1	i	-3.1%
O=S1(=O)N=C2CCCCCN2C(c2ccc(Cl)cc2)N1 (centres undefined)	-2.3%	-8.0%
CCn1c(NCc2ccc(OC)c(OC)c2)nc2ccccc21	-22.6%	-15.0%
COc1ccc(-c2oc(NC(=O)CCl)c(C#N)c2-c2ccc(OC)cc2)cc1	?	?
CN(C)S(=O)(=O)Oc1ccccc1C(=O)Nc1cccc(C(F)(F)F)c1	i	-15.7%
COC(=O)C1CCN(C(=O)Cc2ccccc2OC)CC1	-4.1%	-1.4%
CSc1ccc(C2NC(=O)c3ccccc3N2)cc1 (centres undefined)	-28.9%	-16.9%
CC(C)CN(CC(C)C)C(=O)CS(=O)(=O)Cc1ccccc1	-16.4%	-11.5%
